MLL AF4-AF9 inh = inhibitors of human MLL-AF4/AF9 interaction. AlphaScreen, biotin-AF4 peptide binding to FLAG-AF9. AID 651704. P42568. inhibition, % at 10 µM. 350,000 tested, 0.47% active;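 active means every replicate reaching a set inhibition limit, whatever the replicate mean, cut at about 25% in these data; inconclusive means mean inhibition reaches that limit but some replicates miss it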;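 further: 0% = plate neutral control median and 100% = total signal loss; the record names both 10 and 1 µM as test concentration; the first replicate is given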
Target sequence (P42568 whole entry, looked up): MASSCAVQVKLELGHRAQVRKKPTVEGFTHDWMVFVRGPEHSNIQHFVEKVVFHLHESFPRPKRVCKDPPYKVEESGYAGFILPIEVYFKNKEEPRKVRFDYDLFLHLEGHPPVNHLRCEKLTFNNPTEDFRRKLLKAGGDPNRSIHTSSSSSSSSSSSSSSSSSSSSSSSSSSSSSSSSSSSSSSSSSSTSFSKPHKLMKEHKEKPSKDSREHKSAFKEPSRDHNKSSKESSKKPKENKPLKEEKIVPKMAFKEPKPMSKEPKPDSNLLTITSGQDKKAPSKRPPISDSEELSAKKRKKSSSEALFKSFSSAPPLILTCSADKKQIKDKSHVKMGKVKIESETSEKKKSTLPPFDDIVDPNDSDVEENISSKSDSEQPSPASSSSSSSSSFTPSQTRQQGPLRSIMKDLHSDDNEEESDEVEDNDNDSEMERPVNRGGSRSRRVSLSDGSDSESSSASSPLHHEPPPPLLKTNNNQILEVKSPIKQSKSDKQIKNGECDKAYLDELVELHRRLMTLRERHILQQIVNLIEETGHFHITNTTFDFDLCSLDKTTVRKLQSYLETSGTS
Beta apoptosis = beta cell apoptosis inhibition | INS-1E cytokine-induced death, ATP luminescence, 48 h; percent of positive-control rescue, neutral wells zero | protection from apoptosis, % (concentration not given with the values) | 300,000 tested, 0.8% active | AID 435005;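 active means all replicates at 75% or more, or half of them and the mean; inconclusive means half reach 75% but not the mean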;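 further: 0% = cytokine-treated negative control wells and 100% = positive control rescue; higher means more ATP so stronger rescue from cytokine killing; wells of about 40 µL received 100 nL stock; the first replicate is given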
RanGTP-Imp inh = inhibitors of RanGTP-importin-beta interaction, primary screen, biochemical, FRET, CFP-Ran, YFP-importin-beta, homogeneous; cell-free CFP-Ran/YFP-importin-beta FRET ratio; inhibition, % (test concentration not listed); 300,000 tested, 1.1% active; AID 2216;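 active means most replicates above 15%; inconclusive means exactly half above 15%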;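 further: 0% = DMSO wells and 100% = Ran loaded with GDP instead of GTP; wells of about 40 µL received 100 nL stock; the first replicate is given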
A1 inh = inhibitors of the anti-apoptotic protein A1, read as caspase activation; MEF A1-2A-BIM cells, Caspase-Glo 3/7 luminescence, 3 h; percent of clofoctol response, vehicle zero; caspase activation, % (test concentration not listed); 330,000 tested, 0.066% active; AID 2462;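 active means over half of replicate activation scores above 10%, or exactly half above 10 with the replicate mean above 10; inconclusive means replicate mean below 10 yet half the replicates above 10; inactive means over half of replicates below 10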;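 further: wells of about 30 µL received 50 nL stock; many hits fall short of the cut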
Calb FLC = affects C. albicans growth with fluconazole. C. albicans CaCi-2 (fluconazole-resistant clinical isolate) + fluconazole, Alamar Blue growth, 48 h. growth inhibition, % (no concentration beside the values). 300,000 tested, 0.57% active;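 active means most replicates above 75%; inconclusive means exactly half above 75%; inactive means most below 75%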;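 further: all wells also contain fluconazole at 8 µg/ml as a sub-toxic cotreatment; 0% = median of DMSO wells and 100% = median of geldanamycin control wells; wells of about 8 µL received 7.5 nL stock; the first replicate is given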
LANA-H2B inh = blocks KSHV LANA binding to histone H2A/H2B. AID 2629. 320,000 tested, 0.6% active. cell-free LANA-H2A/H2B peptide, fluorescence polarization. inhibition, % (no concentration beside the values). Q9QR71; in the data active means inhibition mostly above about 10%, no sharp cut-off; inactive means mostly below about 6.7%;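 further: stock transfer was 7.5 nL into about 10 µL; 0% = median of vehicle wells and 100% = median of positive control wells; one replicate is shown; the record names a cut of 25% in any replicate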
T cruzi inh = T. cruzi replication inhibition. T. cruzi beta-gal in NIH3T3, luminescence, 90 h. inhibition, % (no concentration beside the values). 300,000 tested, 1.4% active. AID 1885;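 active means mean inhibition across valid replicates above about 55%, limit read from the data; inconclusive means mean below that limit but half or more replicates reach it; inactive means mean below it, under half of replicates reach it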;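 further: signal also drops with host cell toxicity which is not excluded here; 0% = plate median of DMSO wells and 100% = zero luminescence signal; higher percent means less beta-gal luminescence so fewer parasites; stock transfer was 50 nL into about 50 µL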
Vif TR-FRET = HIV-1 Vif–A3G interaction blockers – biochemical, TR-FRET, GST-Vif 1-94, biotin-A3G peptide, dose response retest, primary screen (AID 1117319) | TR-FRET GST-Vif / biotin-A3G peptide binding; higher % means a stronger effect; test concentration not given here; strong numbers were not always called active | inhibition, %; hits with a dose series show IC50 in µM | 260,000 tested, 0.57% active;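 active means above the screen mean plus three standard deviations and confirmed in dose response; inconclusive means results disagree or hit not tested in dose response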;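 further: Vif residues 1-94 fused to GST binding biotinylated APOBEC3G peptide 110-148; 0% = full assay without inhibitor and 100% = GST in place of GST-Vif; retest series ran down from 100 µM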
* = called active by the depositor; ? = inconclusive; / = not tested or not shown; & = joins results of further samples.

| molecule | Beta apoptosis | RanGTP-Imp inh | T cruzi inh | A1 inh | Calb FLC | LANA-H2B inh | Vif TR-FRET | MLL AF4-AF9 inh |
| --- | --- | --- | --- | --- | --- | --- | --- | --- |
| O=c1c(CN2CCN(Cc3ccccc3)CC2)coc2ccc(Cl)cc12 | -1 | -0.9 | 16 | -0.2 | -13 | 3.4 | -5% | / |
| Cc1ccc(OCC(=O)N2CCC(N3CC(C)CC(C)C3)CC2)cc1 (stereo not given) | / | -3.9 | -1 | -0.6 | -16 | -2.9 | 6% | -2.0 |
| CCCCc1ccc(NC=C2C(=O)OC3(CCCCC3)OC2=O)cc1 | 11 | -0.5 | 16 | 0.5 | -23 | 5.3 | 15% | / |
| CCN(c1ccccc1)S(=O)(=O)c1cc(C(=O)OC(C)C(=O)Nc2ccc3c(c2)OCCO3)ccc1C (stereo not given) | 0 | -2.2 | 2 | 1.2 | 7 | -0.6 | / | -2.4 |
| O=C(Nc1ccccc1Br)c1cc(=O)c2ccccc2o1 | 3 | -1.1 | -14 | -3.3 | -2 | -0.3 | / | -6.0 |
| CCCCCCN1C=C/C(=C\C=C(C#N)C#N)c2ccccc21 | 42 | -0.5 | 32 | -0.4 | -27 | -0.9 | / | -0.3 |
| COc1ccc(CCNC(=O)CSc2nc3cc(Cl)ccc3o2)cc1OC | -2 | -4.1 | 2 | 0.9 | -8 | 7.6 | 0% | / |
| Oc1ccc(Cl)cc1C=NCCc1ccccc1 | -2 | -2.7 | -21 | -0.1 | 22 | -5.3 | 3% | 0.1 |
| O=C(COc1ccc2c(c1)OCO2)Nc1nnc(Cc2ccccc2)s1 | -4 | 3.4 | -2 | -0.4 | 29 | 1.1 | / | -0.9 |
| O=C(CN(C(=O)C1CSC(=O)C1)c1cccc(F)c1)NCc1ccc2c(c1)OCO2 (stereo not given) | 0 | 0.1 | 0 | 0.4 | -10 | 0.3 | / | 3.0 |
| O=C(O)c1cc(NCc2ccc3c(c2)OCO3)ccc1N1CCOCC1 | 6 | -0.7 | -14 | -0.1 | 1 | 0.2 | 21% | / |
| NC(=O)C1CCN(c2nc3ccccc3nc2NS(=O)(=O)c2ccc(Br)cc2)CC1 | -2 | / | / | 0.3 | / | 2.7 | -5% | -0.2 |
| c1ccc2oc(-c3ccn[nH]3)cc2c1 | -9 | -1.1 | -8 | -2.3 | 1 | 5.2 | / | 1.2 |
| COc1cccc(CN2CCC(Oc3ccc(C(=O)NCc4ccccn4)cc3)CC2)c1O | / | 13 | 5 | / | -15 | / | / | 5.0 |
| CCOC(=O)CSc1nnc(CSc2nc3sc4c(c3c(=O)[nH]2)CCCC4)n1-c1ccccc1 | 2 | 32* | 0 | 0.3 | ? | 2.0 | 3% | / |
| CC(C)c1ccc(OCC(=O)Nc2ccncc2)cc1 | -3 | 3.3 | -1 | -1.0 | 5 | -2.3 | 3% | 1.4 |
| Cc1noc(C)c1S(=O)(=O)N(C)C[C@H]1Oc2c(NC(=O)Nc3ccc(C(F)(F)F)cc3)cccc2C(=O)N([C@H](C)CO)C[C@@H]1C | 10 | / | / | 1.0 | / | -4.8 | / | -4.5 |
| CSc1cccc(NC(=S)N2CCCN(Cc3cccc(Cl)c3)C2)c1 | -1 | -2.4 | 43 | 0.1 | -4 | 4.2 | -8% | 7.4 |
| C[C@H](CO)N1C[C@H](C)[C@@H](CN(C)S(=O)(=O)c2cccs2)Oc2ccc(NC(=O)CCC(F)(F)F)cc2C1=O | -2 | / | / | 0.6 | / | -0.5 | / | -0.4&-0.1 |
| NC(=O)c1ccccc1OCC(=O)N1CCCc2ccccc21 | -2 | -6.7 | -4 | -0.5 | 3 | 2.2 | 4% | -2.3 |
| CC(C)CC(c1nnnn1C1CCCCC1)N1CCN(C(=O)c2ccco2)CC1 (stereo not given) | 7 | ? | -23 | 0.2 | 9 | 3.8 | / | -0.1 |
| COc1ccc(Cl)cc1NC(=O)CCS(=O)(=O)c1ccc(C)cc1 | / | 2.9 | -4 | 0.2 | 8 | 0.2 | 0% | -2.9 |
| CC(Oc1ccc(Cl)cc1C(N)=O)C(=O)N1CCc2ccccc21 (stereo not given) | 1 | / | / | 0.3 | / | -0.1 | -5% | -2.1 |
| CC[C@H](C)C(C(=O)N1CCN(C(=O)OC(C)(C)C)CC1)n1cc(C(Cc2ccc(O)cc2)NC(=O)OC(C)(C)C)nn1 (stereo not given in full) | 27 | -2.0 | -4 | -0.6 | -4 | -2.9 | -12% | 1.1 |
| Fc1ccccc1/C=N/n1c(C2CCCCC2)n[nH]c1=S | -2 | 4.9 | -8 | -0.1 | 20 | 1.4 | -10% | -2.6 |
| CC(=O)c1ccc(NC(=O)C2CC(c3ccc(F)cc3)=NO2)cc1 (stereo not given) | -4 | 0.6 | -8 | 1.0 | 9 | 0.9 | 5% | / |
| COc1cc(OC)c(OC)cc1/C=N/NC(=O)c1ccc2nc[nH]c2c1 | -5 | -3.7 | -18 | -0.3 | -1 | 3.2 | -5% | 1.4 |
| Cc1ccc(NC(=O)C2=C(C(=O)O)CCCC2)cc1F | / | 2.3 | -8 | -0.7 | 5 | -1.7 | / | -0.8 |
| CC(=O)c1c(C)[nH]c(C(=O)OCC(=O)NNC(=O)c2ccc([N+](=O)[O-])cc2)c1C | 0 | / | / | -1.8 | / | 3.5 | 1% | -5.5 |
| O=C(O)C1C2C=CC3(O2)C1C(=O)N1c2ccccc2C2OCCC2C13 (stereo not given) | -2 | -1.3 | -10 | 0.6 | -3 | 1.7 | 15% | / |
| NNC(=O)CC1NCCN(Cc2ccccc2)C1=O (stereo not given) | -7 | 5.4 | -6 | -0.1 | 2 | -3.9 | 0% | -1.2 |
| c1ccc(Nc2nc(NCc3ccco3)c3ccccc3n2)cc1 | 81* | ? | 17 | -0.9 | -4 | -1.0 | -8% | / |
| CCCCc1cc(=O)oc2c(C)c(OCC(=O)N3CCCC3)ccc12 | 8 | 3.4 | 7 | -0.2 | 10 | 0.2 | -5% | -1.9 |
| CN1C(=O)C(CC(=O)Nc2ccc(Cl)cc2)N(Cc2ccco2)C1=S (stereo not given) | -9 | 0.9 | -17 | -0.9 | 4 | 1.1 | 1% | 1.9 |
| CCOc1ccc(NC2=NCCC(=O)N2Cc2cccs2)cc1 | -3 | 9.3 | -7 | -0.7 | -6 | -1.3 | 6% | / |
| CCOc1ccc(Cc2nc(N)nc(N)n2)cc1 | 1 | -3.0 | 11 | 0.3 | -1 | -0.2 | 14% | / |
| COc1ccc(NC(=S)NCC(c2cccnc2)N2CCOCC2)cc1 (stereo not given) | 0 | 1.2 | 4 | 0.7 | 3 | -10 | 6% | -4.3 |
| COc1ccc(CCNC(=O)C2CCN(Cc3nc(-c4cccc(Cl)c4)oc3C)CC2)cc1OC | -5 | 1.0 | -7 | 0.0 | -4 | 0.4 | -1% | / |
| Cn1c(Cc2ccc3c(c2)OCO3)nnc1SCC(=O)NC(C)(C)C | -12 | -3.9 | -18 | 0.0 | 20 | 2.9 | 2% | -0.9 |
| COc1cc([N+](=O)[O-])c2nccnc2c1 | -5 | -1.8 | -4 | 0.3 | 25 | -6.2 | 3% | -0.8 |
| O=C(CC(=O)N1CCN(c2ccccn2)CC1)Nc1ccc2nc3n(c(=O)c2c1)CCCCC3 | -2 | 4.3 | 7 | 0.8 | 1 | 0.7 | 1% | -3.7 |
| COc1ccc(N2CC(C(=O)Nc3nnc(SCc4cccnc4)s3)CC2=O)cc1 (stereo not given) | -1 | -2.9 | -4 | 1.0 | 4 | -6.7 | 3% | -1.4 |
| COC(=O)CNC(=O)C1CCN(c2nc(C)cc(C)n2)CC1 | -11 | ? | / | -0.8 | -5 | 0.9 | 12% | / |
| CCOc1ccc(C2CC(c3cccc(OC)c3)Nc3ncnn32)cc1 (stereo not given) | -4 | 1.9 | 33 | -0.1 | 4 | 3.2 | -2% | 0.6 |
| N#Cc1cc2c(cc1NC(=O)CCn1cnnn1)OCO2 | -4 | 1.6 | 0 | 0.2 | 5 | -5.5 | / | -4.7 |
| Cc1ccc(C(=O)Nc2ccccc2C(=O)NC(Cc2c[nH]c3ccccc23)C(=O)O)cc1 (stereo not given) | -1 | 4.3 | -11 | 0.6 | 6 | 2.0 | 10% | -0.9 |
| CCOc1ccc(/C=C2\SC(=O)N(c3ccc(O)cc3)C2=O)cc1OC | 1 | 6.3 | -3 | 0.6 | 16 | -4.7 | 5% | / |
| CCOC(=O)N/N=C\c1sccc1C | -5 | -1.8 | 9 | -0.3 | -9 | -2.5 | / | 0.1 |
| CCn1c(CC(=O)Nc2ccc(C)cc2)n[nH]c1=S | 3 | 0.4 | -25 | 1.6 | -2 | 0.9 | 1% | -1.3 |
| O=C(c1cc([N+](=O)[O-])cc([N+](=O)[O-])c1)N1CCOCC1 | 1 | -2.1 | 30 | 0.4 | 18 | 8.7 | 17% | -0.7 |

(list continues)
| molecule | Beta apoptosis | RanGTP-Imp inh | T cruzi inh | A1 inh | Calb FLC | LANA-H2B inh | Vif TR-FRET | MLL AF4-AF9 inh |
| --- | --- | --- | --- | --- | --- | --- | --- | --- |
| C#CCN1C(=O)C(O)(CC(=O)/C=C/c2ccco2)c2ccccc21 (stereo not given) | -4 | -3.4 | -25 | 0.2 | -59 | 2.7 | 3% | 1.4 |
| OC1CCN(CC(O)C(F)(F)F)CC1 (stereo not given) | -3 | 2.3 | -8 | 0.1 | -6 | 6.0 | / | -2.6 |
| O=C(O)CS/C(=C\c1ccc(F)cc1)c1nc2ccccc2s1 | 2 | -0.4 | -2 | 0.6 | 43 | 1.9 | / | / |
| COc1cc(C(=S)N2CCCC2)cc(OC)c1OS(=O)(=O)c1ccc(NC(C)=O)cc1 | 1 | 1.5 | 0 | 0.2 | -5 | -3.5 | -12% | -2.6 |
| COc1ccc(Oc2cn[nH]c2-c2ccc(O)cc2O)cc1 | 10 | 2.4 | 10 | 0.1 | 6 | 1.7 | ? | / |
| COc1ccc(Cl)cc1C(=O)OCC(=O)NCCNC(=O)COC(=O)c1cc(Cl)ccc1OC | 3 | -4.0 | 4 | -0.1 | 2 | -5.6 | -6% | -9.1 |
| COc1cccc(OC)c1C(=O)OCC(=O)Nc1cccnc1Cl | -4 | 2.9 | -13 | -0.2 | 3 | 0.3 | -4% | -0.1 |

From PubChem BioAssay
